hNpr1 antagonist: blocks ANP-stimulated signaling of human Npr1 receptor. P16066. HEK293 hNpr1 GloSensor cGMP, ANP-stimulated luminescence. Potency, µM (series often up to 46.3 µM), without a hit: top-dose activity change, negative = inhibition, actives largely listed as inhibitors. 1.6% of 76,000 active. AID 1347048; active = well fitted inhibition curve with a large enough effect; inconclusive = small, poorly fitted or top-dose-only effect; inactive = no such curve, though single readings can be large or run the other way;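 also: nearly all actives have a fitted effect of over 60% in size; nearly all hits also lower the signal before the agonist is added; a reference antagonist and vehicle were the controls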
Target sequence (P16066 whole entry, looked up): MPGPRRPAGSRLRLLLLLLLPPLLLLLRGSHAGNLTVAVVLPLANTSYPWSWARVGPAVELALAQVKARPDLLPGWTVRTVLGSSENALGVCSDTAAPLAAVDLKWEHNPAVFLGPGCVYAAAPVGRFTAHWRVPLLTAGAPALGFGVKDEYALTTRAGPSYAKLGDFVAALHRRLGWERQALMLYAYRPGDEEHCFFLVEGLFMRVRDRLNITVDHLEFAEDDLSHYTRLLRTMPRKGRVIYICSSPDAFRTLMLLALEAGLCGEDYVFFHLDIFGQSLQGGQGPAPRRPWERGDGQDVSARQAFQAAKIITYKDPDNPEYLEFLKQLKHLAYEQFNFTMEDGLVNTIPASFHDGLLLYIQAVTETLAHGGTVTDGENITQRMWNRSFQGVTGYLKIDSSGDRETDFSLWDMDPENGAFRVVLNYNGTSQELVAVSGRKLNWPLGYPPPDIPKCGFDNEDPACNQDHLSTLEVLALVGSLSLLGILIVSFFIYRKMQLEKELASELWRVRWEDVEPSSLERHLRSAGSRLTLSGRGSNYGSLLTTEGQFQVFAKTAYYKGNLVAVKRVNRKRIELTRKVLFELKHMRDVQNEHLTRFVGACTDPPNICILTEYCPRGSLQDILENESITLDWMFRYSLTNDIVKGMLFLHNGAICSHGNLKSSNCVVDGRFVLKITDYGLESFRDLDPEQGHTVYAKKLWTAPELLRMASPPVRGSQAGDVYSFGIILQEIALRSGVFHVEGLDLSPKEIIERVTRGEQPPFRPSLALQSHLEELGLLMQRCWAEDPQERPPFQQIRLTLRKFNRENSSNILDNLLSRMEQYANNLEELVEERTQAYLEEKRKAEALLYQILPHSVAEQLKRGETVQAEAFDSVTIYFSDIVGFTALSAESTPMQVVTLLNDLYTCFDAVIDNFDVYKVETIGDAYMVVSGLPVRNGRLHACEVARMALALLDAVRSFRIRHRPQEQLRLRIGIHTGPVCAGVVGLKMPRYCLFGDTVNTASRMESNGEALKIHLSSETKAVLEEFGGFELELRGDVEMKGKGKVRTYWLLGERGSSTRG
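HEK293 cells stably expressing human Npr1 and cGMP GloSensor pGS-40F, loaded 2 h with 2% GloSensor reagent, given compound 30 min at room temperature. Luminescence read before and 20 min after 0.1 nM hNppA.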
* marks the source's active call; other numbers are inactive results; ? = inconclusive; [ ] = dose if it differs, or a comment. % is scaled to controls: 0 for no effect and ±100 for the full control effect; potency is read from the fitted curve at half-maximal effect. This is a subset; count on the stated rates, not on these rows.

CN1CCC(OC2CCN(C(=O)c3cc(F)cc(F)c3)CC2)CC1
  hNpr1 antagonist = -18%
COCCN1CCCC1c1nc(C2CN(C(=O)NCc3ccco3)C2)no1 (stereo unspecified)
  hNpr1 antagonist = 3%
c1cc(Cn2ccc3c(N4CCOCC4)nc(-c4ccc5cn[nH]c5c4)cc32)ccn1
  hNpr1 antagonist = -21%[70.6 µM]
Cn1ccnc1C(=O)N1CCCn2ccnc2C1c1ccccc1 (stereo unspecified)
  hNpr1 antagonist = 7%
O=C(Nc1ccc(N2CCOCC2)cc1)C1(CCO)CCN(Cc2ccccc2)C1 (stereo unspecified)
  hNpr1 antagonist = 0%
O=C(c1cccnc1N1CC2CC(C1)[C@H]1CCCC(=O)N1C2)N1CCN(c2ccc(Cl)cc2)CC1 (stereo partly specified)
  hNpr1 antagonist = 4%
Cc1cccc(C(=O)N2C[C@@H](CO)[C@H](c3ccccn3)C2)n1
  hNpr1 antagonist = -1%
O=C1CCCN1CCCN1C(=O)[C@H]2CN(Cc3cccc(Cl)c3F)C[C@H]2C1=O
  hNpr1 antagonist = 11%
COc1cccc(C(=O)NC2CCN(c3cc(C(F)(F)F)nc(C)n3)CC2)c1
  hNpr1 antagonist = -27%
NC(=O)c1nc(CNC(=O)[C@H]2CCC[C@H](O)C2)no1
  hNpr1 antagonist = 2%
O=C([C@@H]1C[C@H](Oc2ccccc2)CN1C(=O)CCC1CCCC1)N1CCCC1
  hNpr1 antagonist = 9%
C=CCOC(=O)C1=C(C)N=C2SC=C(CC(=O)NCc3ccc(F)cc3)N2C1c1ccccc1C (stereo unspecified)
  hNpr1 antagonist = -30%
COc1ccccc1CN1CCNc2cnc(Nc3ccccc3)cc2C1
  hNpr1 antagonist = -1%[70.6 µM]
O=C(c1cncnc1)N1C[C@@H](COCC2CC2)[C@H](c2ccccn2)C1
  hNpr1 antagonist = 0%
COc1ccc(CNC(=O)N2CCC(c3noc(-c4ccncc4)n3)C2)cc1 (stereo unspecified)
  hNpr1 antagonist = -3%
O=C(Cn1ccn2nc3c(c2c1=O)CCCC3)N1CCc2ccccc21
  hNpr1 antagonist = 6%
COc1ccc(CN2C(=O)CO[C@H](c3ccc(NC(=O)c4ccccc4C)cc3)[C@H]2CO)cc1
  hNpr1 antagonist = -2%
O=C(NC1CCCCC1)N1CCCCCC1c1nc(-c2ccncc2)no1 (stereo unspecified)
  hNpr1 antagonist = -10%
CCOc1ccc(NC(=O)Cn2ccn3nc(-c4ccc(F)cc4)c(CO)c3c2=O)cc1
  hNpr1 antagonist = 5%
CC(C)(C)CC(=O)N[C@H]1CO[C@H]2[C@@H]1OC[C@H]2OCC(N)=O
  hNpr1 antagonist = 6%[70.6 µM]
CCc1nc(CC)n2ccn(Cc3ccc(OC)cc3)c(=O)c12
  hNpr1 antagonist = 2%
CCNC(=O)N1CCCC1c1noc(CCC(=O)NC2CC2)n1 (stereo unspecified)
  hNpr1 antagonist = -23%
O=C(c1cccnc1)N1CCCC(Cc2nc(C3CCOCC3)no2)C1 (stereo unspecified)
  hNpr1 antagonist = -1%
Cc1ccc(S(=O)(=O)N[C@H](C)c2onc(C)c2C(=O)O)cc1
  hNpr1 antagonist = 1%[70.6 µM]
Cc1cc(S(=O)(=O)N2CCC(c3noc(COc4ccc(F)cc4)n3)CC2)ccc1F
  hNpr1 antagonist = ?

COc1ccc(OCc2nnc(C(=O)N3CCC[C@@H]3c3nc4ccccc4[nH]3)n2-c2ccccc2)cc1
  hNpr1 antagonist = 4%
Cc1cc(C(=O)N[C@H](C)c2c(-c3ccc(Cl)cc3)noc2C(=O)O)c(C)o1
  hNpr1 antagonist = -2%[70.6 µM]
CN(Cc1cccnc1)C(=O)CC1CCCN(c2cnn(C)c(=O)c2)C1 (stereo unspecified)
  hNpr1 antagonist = -2%
Cc1ccc(OCc2nc(C3CCN(C(=O)c4ccn[nH]4)C3)no2)cc1 (stereo unspecified)
  hNpr1 antagonist = -15%
COCCC1(NS(C)(=O)=O)CCN(S(=O)(=O)c2ccc3c(c2)OCCO3)CC1
  hNpr1 antagonist = 1%
CCN(CC)C(=O)CCc1c(C)nn(-c2ccc(F)cc2)c1Oc1ccccc1C
  hNpr1 antagonist = -21%
COCc1cc(C[C@@H]2C[C@H](NC(=O)c3ccnc(Cl)c3)C2(C)C)no1
  hNpr1 antagonist = 0%[70.6 µM]
COc1cc(CNC(=O)c2cnc3c(c2)N(C(=O)CCc2ccccc2)CCC3)cc(OC)c1
  hNpr1 antagonist = 0%
CN1c2cc(C(=O)NCc3ccccc3)ccc2C(=O)N2CCCC21 (stereo unspecified)
  hNpr1 antagonist = 0%
COc1cc(=O)n2c(c1C(=O)NCc1ccc(Cl)cc1)CCCC2
  hNpr1 antagonist = 2%
CS(=O)(=O)NC[C@H]1Cn2ccnc2CO1
  hNpr1 antagonist = 4%[70.6 µM]
O=C(c1ccc2c(c1)OCO2)N1CCC2(CC1)N=C(c1ccc(Cl)cc1)NO2
  hNpr1 antagonist = ?
COc1ccccc1-c1ccc(CN2CCN(c3ccc(Cl)nn3)C(=O)C2)cc1
  hNpr1 antagonist = -2%
O=C(c1ccccc1F)N1CCN(c2cc(-c3ccccc3)[nH]n2)CC1
  hNpr1 antagonist = -6%
O=C(Nc1cccc(Cl)c1)C1CCc2sc(C(=O)N3CCCC3)cc2C1 (stereo unspecified)
  hNpr1 antagonist = ?
O=C(C1CC1)N1CCC(Oc2cnc3c(ccn3-c3cncnc3)c2)CC1
  hNpr1 antagonist = -1%[70.6 µM]
COc1cc(=O)n2c(c1C(=O)Nc1cccc(Cl)c1F)CCCC2
  hNpr1 antagonist = -8%
O=C(c1cccc(O)c1)N1CCNc2cnc(Nc3cccc(F)c3)nc2C1
  hNpr1 antagonist = 22µM*
CN1c2cc(C(=O)NCc3cccc(Cl)c3)ccc2C(=O)N2CCCCC21 (stereo unspecified)
  hNpr1 antagonist = -16%
Cc1ccc(-c2nc(C(=O)N3CCN(Cc4ccc5c(c4)OCO5)CC3)no2)cc1
  hNpr1 antagonist = ?
Cc1ccsc1CN1CCc2nc(N3CCN(C)CC3)[nH]c(=O)c2CC1
  hNpr1 antagonist = -2%
CCCc1nnsc1C(=O)N[C@@H]1COCC[C@@H]1OCC1CC1
  hNpr1 antagonist = -3%
CCOc1ccc(-c2ccnc(NCC3CCNCC3)n2)cc1C(=O)O
  hNpr1 antagonist = 3%
O=C(NC1C[C@H]2CC[C@@H](C1)N2C(=O)c1ccoc1)c1ccncc1 (stereo partly specified)
  hNpr1 antagonist = 8%
COc1ccc(CO[C@H]2COCCN(c3nc4ccccc4o3)C2)cc1
  hNpr1 antagonist = -1%[70.6 µM]

Shown as tab-separated lines: entries from further up
compound	hNpr1 antagonist
COCc1cc(C[C@@H]2C[C@H](NC(=O)c3ccnc(Cl)c3)C2(C)C)no1	0%[70.6 µM]
COc1cc(CNC(=O)c2cnc3c(c2)N(C(=O)CCc2ccccc2)CCC3)cc(OC)c1	0%
CN1c2cc(C(=O)NCc3ccccc3)ccc2C(=O)N2CCCC21 (stereo unspecified)	0%
COc1cc(=O)n2c(c1C(=O)NCc1ccc(Cl)cc1)CCCC2	2%
CS(=O)(=O)NC[C@H]1Cn2ccnc2CO1	4%[70.6 µM]
O=C(c1ccc2c(c1)OCO2)N1CCC2(CC1)N=C(c1ccc(Cl)cc1)NO2	?
COc1ccccc1-c1ccc(CN2CCN(c3ccc(Cl)nn3)C(=O)C2)cc1	-2%
O=C(c1ccccc1F)N1CCN(c2cc(-c3ccccc3)[nH]n2)CC1	-6%
O=C(Nc1cccc(Cl)c1)C1CCc2sc(C(=O)N3CCCC3)cc2C1 (stereo unspecified)	?
O=C(C1CC1)N1CCC(Oc2cnc3c(ccn3-c3cncnc3)c2)CC1	-1%[70.6 µM]
COc1cc(=O)n2c(c1C(=O)Nc1cccc(Cl)c1F)CCCC2	-8%
O=C(c1cccc(O)c1)N1CCNc2cnc(Nc3cccc(F)c3)nc2C1	22µM*
CN1c2cc(C(=O)NCc3cccc(Cl)c3)ccc2C(=O)N2CCCCC21 (stereo unspecified)	-16%

(continued)
Cc1cc(C)cc(C(=O)N2CCN(C3CCN(CCC(C)C)C3=O)CC2)c1 (stereo unspecified)
  hNpr1 antagonist = 2%
O=C(CC1CCCC1)N1CCC2(CC1)CC(N(C(=O)c1ccccc1)C1CC1)CCO2 (stereo unspecified)
  hNpr1 antagonist = -17%
O=C(Nc1cc(F)ccc1Cl)c1cc2n(n1)CC(c1ccc(Br)cc1)OC2 (stereo unspecified)
  hNpr1 antagonist = -24%
CCn1c(CO)nnc1C1CC(NC(=O)Cc2csc(C(C)=O)c2)C1 (stereo unspecified)
  hNpr1 antagonist = 6%
CC(C)c1noc(CCn2ccnc2-c2cnc[nH]2)n1
  hNpr1 antagonist = 1%
O=C(NCCc1ccc(F)cc1)C1CN(c2ccc(F)cc2)C(=O)N1 (stereo unspecified)
  hNpr1 antagonist = 1%
CCOC(=O)C1=CN(CC(=O)Nc2ccc(C(F)(F)F)cc2)S(=O)(=O)N=C1C
  hNpr1 antagonist = -2%
O=C(CC1CCCN(c2cn[nH]c(=O)c2)C1)N1CC=C(c2ccccc2)CC1 (stereo unspecified)
  hNpr1 antagonist = -10%
COCC1CN(C2CCC2)CC12CCN(C(=O)CC1CCCC1)CC2 (stereo unspecified)
  hNpr1 antagonist = -2%
O=C(NCc1ccc2c(c1)OCO2)c1ccc(-c2ccc(N3CCSCC3)nc2)cc1
  hNpr1 antagonist = -8%
COc1cccc(NC(=O)[C@@H]2C[C@@H](c3ccc(F)cc3)N(Cc3ccccc3)C2)c1
  hNpr1 antagonist = ?
CN(C)C[C@@H]1CN(S(C)(=O)=O)C[C@H]1NC(=O)c1cnco1
  hNpr1 antagonist = 8%
O=C1NC2(CCN(Cc3ccc(F)cc3)C2)OCc2ccccc21 (stereo unspecified)
  hNpr1 antagonist = 4%[70.6 µM]
CC(=O)Nc1ccc(CN2CC(N(C)c3ccccc3C)C2)cc1
  hNpr1 antagonist = 3%[70.6 µM]
O=S(=O)(NC1CCCN(Cc2ccccc2F)C1)c1ccccc1 (stereo unspecified)
  hNpr1 antagonist = 5%
CN(Cc1csc(-c2ccccc2)n1)C(=O)c1ccc(-n2cnnn2)cc1
  hNpr1 antagonist = -1%
COCCOC1CCOC2(CCN(S(=O)(=O)c3cccc(OC)c3)CC2)C1 (stereo unspecified)
  hNpr1 antagonist = 0%
O=C(NC[C@H]1OC[C@@H](NC2CCCCC2)[C@@H]1O)C1CC1
  hNpr1 antagonist = -3%[70.6 µM]
CN1CCN(C(=O)[C@H]2C[C@H](C(=O)O)CN(C(=O)c3ncccc3O)C2)CC1
  hNpr1 antagonist = -1%
CCn1ccc2sc(C)c(C(=O)N3CCN(c4ccc(F)cc4)CC3)c2c1=O
  hNpr1 antagonist = -17%
CC(=O)N1CCC(C(NC(=O)c2ccccc2)C(=O)NCc2ccco2)CC1 (stereo unspecified)
  hNpr1 antagonist = -7%
O=C(c1ccc(F)c(F)c1)N1CCC2(CC1)N=C(c1cccc(Br)c1)NO2
  hNpr1 antagonist = -22%
CCN1C(=O)CN(C(=O)COc2ccc(F)cc2)CC12CCOCC2
  hNpr1 antagonist = 7%
OC(Cc1ccccc1)c1ccc2c(c1)CN(Cc1ccc(OC(F)F)cc1)CCO2 (stereo unspecified)
  hNpr1 antagonist = -4%
COCc1nc(C2CCCN(C(=O)Nc3ccc(C)cc3C)C2)no1 (stereo unspecified)
  hNpr1 antagonist = 0%

CCNC(=O)N(C1CC1)C1CCOC2(CCN(C(=O)c3n[nH]c4ccccc34)CC2)C1 (stereo unspecified)
  hNpr1 antagonist = 4%
Cc1nnc(-c2cc(-c3ccsc3)ccn2)n1-c1ccccc1
  hNpr1 antagonist = -8%[70.6 µM]
CC(=O)NCCNC(=O)C[C@@H]1CCNC[C@@H]1Cc1cc(-c2ccccn2)on1
  hNpr1 antagonist = 4%[70.6 µM]
Cc1ccc(Cn2c(C3CCN(C(=O)c4cccs4)CC3)n[nH]c2=O)cc1
  hNpr1 antagonist = 7%
Cc1ccc(-c2nnc([C@H]3CCN(C4CCC4)C3)o2)cc1
  hNpr1 antagonist = -5%[70.6 µM]
CS(=O)(=O)NC[C@H]1Cn2c(-c3ccccc3)cnc2CO1
  hNpr1 antagonist = -2%[70.6 µM]
CC1=C[C@@H](CNC(=O)COCC(=O)O)[C@H](C(C)C)C[C@H]1Cc1nc2ccccc2n1C
  hNpr1 antagonist = -16%[70.6 µM]
CC(C)C(=O)N1CCC(Cc2noc(-c3ccncc3)n2)C1 (stereo unspecified)
  hNpr1 antagonist = -1%
COc1ccc(C)cc1NC(=O)N1CC(c2nnc(-c3ccncc3)o2)C2(CCOCC2)C1 (stereo unspecified)
  hNpr1 antagonist = -2%
Cc1ccc(S(=O)(=O)Nc2ccc(C)n(CC(=O)N3CCCCCC3)c2=O)cc1
  hNpr1 antagonist = -1%
CNC(=O)[C@H]1C[C@H](Oc2ccccc2)CN1C(=O)NCc1ccc(C)cc1
  hNpr1 antagonist = 0%
COc1ccccc1CC(=O)NCc1nnc2ccc(-c3ccccc3)nn12
  hNpr1 antagonist = 1%
COC(=O)C1=C(C)N=C2SC=C(CC(=O)NCCOc3ccccc3)N2C1c1cccc(OC)c1 (stereo unspecified)
  hNpr1 antagonist = -24%
COc1cc(-c2onc(C)c2C(=O)N2CCC(Cc3ccc4c(c3)OCO4)CC2)cc(OC)c1OC
  hNpr1 antagonist = -18%
O=C(Cc1cccc(Cl)c1)N1CCCC(c2nn(-c3ccc(F)cc3)c(=O)[nH]2)C1 (stereo unspecified)
  hNpr1 antagonist = 3%
O=C(NCC1CN(C(=O)Cc2cccc(C(F)(F)F)c2)CC12CN(c1ccccc1)C2)Nc1ccccc1 (stereo unspecified)
  hNpr1 antagonist = 2%
